# ALR H2O2 inh = blocks human ALR sulfhydryl oxidase activity; P55789; purified ALR, DTT oxidation, H2O2 HRP-luminol luminescence; inhibition, % (concentration not given with the values); hit rate 3.8% among 290,000;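 active = mean and each replicate at 75% or more; inconclusive = only one of the two met; inactive = neither met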;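 note: stock transfer was 7.5 nL into about 7.5 µL; 0% = neutral wells and 100% = wells with inactivated enzyme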
# Target sequence (P55789 whole entry, looked up): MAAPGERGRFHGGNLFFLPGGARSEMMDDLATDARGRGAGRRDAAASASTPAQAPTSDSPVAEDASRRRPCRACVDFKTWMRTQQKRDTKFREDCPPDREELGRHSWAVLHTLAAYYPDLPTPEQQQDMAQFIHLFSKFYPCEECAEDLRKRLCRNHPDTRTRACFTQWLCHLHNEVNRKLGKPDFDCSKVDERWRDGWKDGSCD
# Vif TR-FRET = HIV-1 Vif–A3G interaction blockers – biochemical, TR-FRET, GST-Vif 1-94, biotin-A3G peptide, dose response retest, primary screen (AID 1117319); TR-FRET GST-Vif / biotin-A3G peptide binding; higher % means a stronger effect; test concentration not given here; strong numbers were not always called active; inhibition, %, or IC50 in µM where a hit was titrated; hit rate 0.57% among 260,000;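 active = above the screen mean plus three standard deviations and confirmed in dose response; inconclusive = results disagree or hit not tested in dose response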;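 note: Vif residues 1-94 fused to GST binding biotinylated APOBEC3G peptide 110-148; 0% = full assay without inhibitor and 100% = GST in place of GST-Vif; retest series ran down from 100 µM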
# rRNA inh HTS = inhibitors of bacterial rRNA selective over humanized ribosomes | E. coli WT GFP vs humanized-ribosome RFP mutants, fluorescence, 24 h; stronger effect = lower value; DMSO median 0, no signal -100 | GFP signal change (wild-type ribosome), % (test concentration not listed) | hit rate 1.6% among 350,000;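 active = significant combined selectivity score with lowered wild-type GFP, culture density cut under 30%, mutant RFP and density less affected; inactive = any of these conditions unmet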; note: one replicate is shown; some compounds called inactive have numbers as strong as hits
# MLL AF4-AF9 inh = blocks AF4 peptide binding to human AF9 | P42568 | AlphaScreen, biotin-AF4 peptide binding to FLAG-AF9 | inhibition, % at 10 µM | hit rate 0.47% among 350,000;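 active = every replicate reaching a set inhibition limit, whatever the replicate mean, cut at about 25% in these data; inconclusive = mean inhibition reaches that limit but some replicates miss it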;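 note: 0% = plate neutral control median and 100% = total signal loss; the record names both 10 and 1 µM as test concentration; the first replicate is given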
# Target sequence (P42568 whole entry, looked up): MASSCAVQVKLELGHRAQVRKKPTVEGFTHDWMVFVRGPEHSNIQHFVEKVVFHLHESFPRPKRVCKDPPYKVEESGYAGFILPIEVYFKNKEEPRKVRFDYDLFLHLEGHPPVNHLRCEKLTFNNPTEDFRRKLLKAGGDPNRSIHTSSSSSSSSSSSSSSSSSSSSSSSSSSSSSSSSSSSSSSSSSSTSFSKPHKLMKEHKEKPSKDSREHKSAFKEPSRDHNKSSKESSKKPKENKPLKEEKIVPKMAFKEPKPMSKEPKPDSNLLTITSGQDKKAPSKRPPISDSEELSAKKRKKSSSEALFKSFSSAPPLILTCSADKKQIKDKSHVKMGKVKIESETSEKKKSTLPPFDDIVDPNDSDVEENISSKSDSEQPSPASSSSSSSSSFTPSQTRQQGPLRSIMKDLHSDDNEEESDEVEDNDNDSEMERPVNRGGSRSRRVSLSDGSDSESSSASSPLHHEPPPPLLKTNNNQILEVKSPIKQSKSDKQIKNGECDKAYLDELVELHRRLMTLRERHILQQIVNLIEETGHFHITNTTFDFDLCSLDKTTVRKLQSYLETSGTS
# E coli growth = inhibitors of Escherichia coli growth. OD600, 23 h; stronger effect = lower value. OD600 absorbance (test concentration not listed). hit rate 0.21% among 330,000. AID 1053175;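 active = OD600 absorbance below the run mean of sample wells minus 3.6 SD, in any replicate, cut at about 0.56 in these data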;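 note: stock transfer was 300 nL into about 60 µL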
# HNF4A DNA FP = change in binding of human HNF4 alpha to DNA; AID 1224865; hit rate 0.3% among 360,000; activity change, % at 10 µM; HNF4a-FITC DNA binding, fluorescence polarization, 1 h; in the data active = activity change above about 30%, passing the limit was not always enough;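 note: controls were the assay level and a saturating level of protein; the project sought stronger binding though the title names inhibitors; some compounds called inactive have numbers as strong as hits; positive values seem to mean higher polarization but the record does not say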
# FGF22 binding = FGF22 (human) thermal shift binding. recombinant FGF22 thermal shift, SYPRO orange fluorescence; percent of sucrose octasulfate shift, DMSO zero. calls only at 9.99 µM. hit rate 1.5% among 340,000. AID 651658;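 active = melting point raised past a set limit in the mean and every replicate; inconclusive = no clear call; three in four hits are not shown here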
# Target sequence (Q9HCT0 whole entry, looked up): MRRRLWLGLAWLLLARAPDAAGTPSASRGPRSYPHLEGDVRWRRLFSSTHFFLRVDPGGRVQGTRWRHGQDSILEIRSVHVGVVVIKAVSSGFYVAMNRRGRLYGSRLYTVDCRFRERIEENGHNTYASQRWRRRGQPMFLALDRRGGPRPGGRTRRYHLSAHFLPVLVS
# rRNA inh HTS OD600 = further read-out of rRNA inh HTS, marked with its call; OD600 change, %; measured here: OD600 growth;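 optical density of the mix in the first replicate; 0 = DMSO median and -100 = no signal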
# rRNA inh HTS RFP = recorded beside rRNA inh HTS, whose call it bears; RFP signal change, %; measured here: RFP humanized mutant strains;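 first replicate; 0 = DMSO median and -100 = no signal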
# * = called active by the depositor; i = inactive; ? = inconclusive; . = no result given; & = joins results of further samples. This is a subset (hit frequency here may not be typical).
SMILES,ALR H2O2 inh,Vif TR-FRET,rRNA inh HTS,rRNA inh HTS OD600,rRNA inh HTS RFP,MLL AF4-AF9 inh,E coli growth,HNF4A DNA FP,FGF22 binding
Cc1cc(C)n(-c2nc3c(c(=O)[nH]c(=O)n3C)n2C)n1,-8,3%,.,.,.,.,0.71,4.7,.
CC(=O)Oc1oc(-c2ccccc2)nc1C=Nc1ccc(N(C)C)cc1,24,.,-3,0,-3.2,-0.8,0.69,-0.3,i
CCc1c(C)nc2cc(-c3ccc(OC)c(OC)c3)nn2c1N1CCC(C)CC1,-16,13%,.,.,.,.,0.72,-0.5,.
CC(NC(=O)Cc1ccc(S(=O)(=O)N2CCCCC2)cc1)c1ccccc1 (stereo not drawn),-4,-4%,-6,-6,1.6,1.5,.,4.9,i
Cc1cc(C(=O)OCC(=O)NC(C)C)c2ccccc2n1,5,19%,6,2,-1.6,-5.2,0.71,3.6,i
O=C(CC1CC1)N1CC(=O)N2[C@H](CO)[C@@H](c3ccc(-c4cccnc4)cc3)[C@H]2C1,.,.,5,7,2.8,0.6,.,.,i
Cc1cc(C(=O)NNC(=O)c2ccccc2[N+](=O)[O-])c(C)o1,1,-7%,10,15,-1.7,-14,0.69,3.0,i
O=C(CCN1CCCCC1)NCC[C@@H]1CC[C@H](NC(=O)Nc2ccc(F)cc2)[C@H](CO)O1,.,.,0,6,-1.5,0.1,.,.,i
COc1nccnc1NS(=O)(=O)c1ccc(NC(=S)NC(=O)c2cccnc2)cc1,.,.,13,4,1.9,2.0,0.65,2.0,i
COc1cccc(/C=N/N=C(\N)c2nonc2N)c1O,-22,-10%,16,19,-0.4,-0.8,.,-4.2,i
CCn1nnnc1NCc1ccc(SC)cc1,-8,.,11,8,0.6,-2.1,0.72,-0.8,.
CCCC#Cc1cnc2c(c1)C(=O)N([C@@H](C)CO)C[C@H](C)[C@H](CN(C)C(=O)Nc1ccccc1F)O2,.,.,0,-1,-0.9,-1.0,.,.,i
O=C(CN1c2cccc3cccc(c23)S1(=O)=O)Nc1ccccc1F,-15,.,-3,-18,-0.7,0.3,0.65,-0.1,i
O=C1[C@H]2[C@H](C=CC[C@H]2C(=O)N2CCN(c3ccccc3)CC2)CCN1Cc1ccc(Cl)c(Cl)c1,-5,.,-19,-25,5.2,.,.,-2.7,i
CC(C)NC(=O)N(C)C[C@H]1Oc2ccc(NS(=O)(=O)c3cn(C)cn3)cc2C(=O)N([C@H](C)CO)C[C@H]1C,.,.,3,16,-0.6,-2.8,.,.,i
O=C(CCl)NC1(C(=O)O)CCCC1,.,0%,17,12,0.4,0.3,.,12,i
C[C@H](CO)N1C[C@H](C)[C@@H](CN(C)Cc2ccc(Oc3ccccc3)cc2)Oc2c(NC(=O)NC3CCCCC3)cccc2C1=O,.,.,1,0,2.8,2.5,.,.,i
COc1ccc(CNC(=O)C[C@@H]2CC[C@H]3[C@@H](COc4ccc(NC(C)=O)cc4C(=O)N3C)O2)cc1,.,.,4,4,-2.9,-1.0,.,.,i
C[C@H]1CN([C@@H](C)CO)C(=O)Cc2cc(NC(=O)Nc3cccc4ccccc34)ccc2O[C@@H]1CN(C)CC1CC1,.,.,6,5,0.3,-1.1,.,.,i
COc1ccc(S(=O)(=O)Nc2ccc3c(c2)CC(=O)N([C@H](C)CO)C[C@@H](C)[C@@H](CN(C)S(=O)(=O)c2cn(C)cn2)O3)cc1,.,.,-3,-5,-0.5,-2.7,.,.,i
Cc1ccc(CN2CCNC(=O)C2CC(=O)N(Cc2c(C)nn(C)c2C)C2CC2)o1 (stereo not drawn),5,3%,4,9,0.5,-2.9,0.67,0.9,i
COc1cc(/C=N/NC(=O)c2ccc(C)nc2)cc([N+](=O)[O-])c1O,-19,7%,3,-22,-1.1,-8.1,.,5.8,i
O=S(=O)(c1cc(Cl)cc(Cl)c1O)N1CCC2(CC1)OCCO2,23,.,2,-18,-1.1,-2.7,0.64,0.4,i
O=C(NCCc1nc2ccccc2[nH]1)c1ccc(F)cc1,-13,-3%,.,.,.,8.0,0.71,1.2,i
CC1(c2ccc(Cl)cc2)NC(=O)N(CC(=O)Nc2ccc3c(c2)OCO3)C1=O (stereo not drawn),.,.,1,-6,2.8,-8.9,.,5.0,i
c1ccc(-n2nnnc2SCc2cn3ccccc3n2)cc1,2,4%,.,.,.,.,0.62,-0.5,.
CN1C(=O)c2cc(NC(=O)C3CCCC3)ccc2OC[C@H]2O[C@@H](CC(=O)NCCc3ccncc3)CC[C@@H]21,.,.,2,5,0.6,0.1,.,.,i
Cc1ccc(COC(=O)c2cccc(S(=O)(=O)N3CCCCC3)c2)cc1,.,3%,3,-6,1.9,-1.3,0.67,1.0,i
COc1ccc2c3c([nH]c2c1)[C@@H](CO)N(C(C)=O)CC31CCN(C(=O)Nc2c(C)noc2C)CC1,.,.,8,12,0.6,0.0,.,.,i
CNC[C@H]1Oc2ccc(NC(=O)CCN3CCOCC3)cc2C(=O)N([C@H](C)CO)C[C@@H]1C,.,.,2,8,-1.1,-17,.,.,i
Cn1cnc(S(=O)(=O)Nc2ccc(OC(F)(F)F)cc2)c1,-2,-2%,17,13,1.6,-0.8,0.7,3.2,i
Oc1ccc(-c2cnns2)c(O)c1,99*,.,4,13,5.1,9.4,0.64,0.6,i
C[C@@H]1CCCCO[C@@H](CN(C)Cc2ccccc2)[C@@H](C)CN([C@H](C)CO)C(=O)c2cc(N(C)C)ccc2O1,.,1%,19&8,19&8,6.6&-0.2,6.7&2.3&7.7,.,-6.0,i
Cc1cc(C(=O)Nc2cccc3c2O[C@H](CN(C)C(=O)NC(C)C)[C@H](C)CN([C@H](C)CO)C3=O)n(C)n1,.,.,0,1,0.2,2.0,.,.,i
Nc1nc(SCC(=O)N2CCCCC2)[nH]c(=O)c1NC(=O)c1cccs1,.,-3%,20,2,0.6,-4.8,0.73,1.6,i
COc1ccccc1C(=O)N(Cc1ccco1)C1CCS(=O)(=O)C1 (stereo not drawn),8,-6%,.,.,.,.,0.78,1.0,.
Nc1cc(Cl)ccc1C(=O)OCC(=O)NCC1CCCO1 (stereo not drawn),-3,-6%,7,13,-0.5,-0.7,0.72,-1.9,i
C[C@H](CO)N1C[C@H](C)[C@@H](CN(C)C(=O)NC2CCCC2)Oc2ncc(-c3ccc(F)cc3)cc2C1=O,.,.,-1,-1,2.8,-2.2,.,.,i
O=C1c2ccc(-c3ccc4c(c3)C(=O)N(CCO)C4=O)cc2C(=O)N1CCO,.,3%,8,7,-4.8,-18,0.69,-6.8,i
C[C@@H](O)C#Cc1ccc([C@@H]2[C@H](CO)N3CCCCN(CC4CCOCC4)C[C@@H]23)cc1,.,.,9,10,-3.1,2.6,.,.,i
Cc1c(O)ccc(/C(Cc2ccc3ccccc3n2)=N\N)c1O,22,3%,-25*,-6.7*,5.5*,.,.,12,i
C[C@@H]1CN([C@H](C)CO)C(=O)c2cc(C#Cc3cccnc3)cnc2O[C@@H]1CN(C)Cc1ccncc1,.,.,0,-2,0.0,-6.1,.,.,i
O=S(=O)(N1CCOCC1)N1CCCN(S(=O)(=O)N2CCOCC2)CC1,-2,76%,.,.,.,.,0.74,0.0,.
CCOc1ccc2nc(SCC(=O)NCc3ccc(S(N)(=O)=O)cc3)sc2c1,-10,.,2,-4,3.9,-0.7,0.72,3.1,i
Cc1nn(Cc2c(Cl)cccc2Cl)c(Cl)c1/C=N/NC(=O)c1cccnc1,-6,17%,4,4,-1.6,-1.6,.,-0.7,i
O=C(Cn1nnc2ccccc2c1=O)Nc1ccc2c(c1)CCC2,7,8%,-3,7,-3.9,-13,0.68,-1.8,.
COc1ccc(N2CCN(C(=O)c3ccc(N4C(=O)NC5CC4(C)Oc4ccccc45)cc3)CC2)cc1 (stereo not drawn),45,8%,.,.,.,.,0.69,-0.4,.
O=C(NNS(=O)(=O)c1ccc(F)cc1)c1ccc2c(c1)OCO2,21,9%,12,12,1.8,-1.8,0.7,4.7,i

# Among those listed so far, 4 contain an NH in an aromatic ring.
SMILES,ALR H2O2 inh,Vif TR-FRET,rRNA inh HTS,rRNA inh HTS OD600,rRNA inh HTS RFP,MLL AF4-AF9 inh,E coli growth,HNF4A DNA FP,FGF22 binding
Cc1cc(C)n(-c2nc3c(c(=O)[nH]c(=O)n3C)n2C)n1,-8,3%,.,.,.,.,0.71,4.7,.
O=C(NCCc1nc2ccccc2[nH]1)c1ccc(F)cc1,-13,-3%,.,.,.,8.0,0.71,1.2,i
COc1ccc2c3c([nH]c2c1)[C@@H](CO)N(C(C)=O)CC31CCN(C(=O)Nc2c(C)noc2C)CC1,.,.,8,12,0.6,0.0,.,.,i
Nc1nc(SCC(=O)N2CCCCC2)[nH]c(=O)c1NC(=O)c1cccs1,.,-3%,20,2,0.6,-4.8,0.73,1.6,i

# Back to the main list; the 2 compounds before the break are reprinted first.
SMILES,ALR H2O2 inh,Vif TR-FRET,rRNA inh HTS,rRNA inh HTS OD600,rRNA inh HTS RFP,MLL AF4-AF9 inh,E coli growth,HNF4A DNA FP,FGF22 binding
COc1ccc(N2CCN(C(=O)c3ccc(N4C(=O)NC5CC4(C)Oc4ccccc45)cc3)CC2)cc1 (stereo not drawn),45,8%,.,.,.,.,0.69,-0.4,.
O=C(NNS(=O)(=O)c1ccc(F)cc1)c1ccc2c(c1)OCO2,21,9%,12,12,1.8,-1.8,0.7,4.7,i
OC1(c2ccc(Cl)c(Cl)c2)C[n+]2ccccc2N1Cc1ccccc1 (stereo not drawn),-5,21%,-44,-76,-8.1,6.7,0.62,0.1,i
C=CCC[C@H](CCCCC)OC(=O)/C=C/[C@@H](O)[C@H](O)C[C@@H](O)CC=C,.,.,3,-4,0.1,-3.2,.,-0.3,i
CC1CCCCC1NC(=O)c1cc(=O)[nH]c2ccccc12 (stereo not drawn),-38,-12%,17,24,1.7,-2.6,0.65,1.8,i
O=C(Nc1sc2c(c1C(=O)NCCO)CCCC2)c1ccco1,71,.,-15,-22,-3.4,-4.0,0.67,-1.3,i
CC(C(=O)Nc1ccc(Cl)cc1)N1C(=O)NC2(CCCC2)C1=O (stereo not drawn),5,.,-2,-4,-0.6,-1.4,0.68,3.2,i
COC(=O)c1ccc(CO/N=C/c2cccc([N+](=O)[O-])c2)cc1,0,5%,9,-3,0.5,-11,.,4.2,i
CCc1ccc(OCC(=O)N/N=C/c2cc([N+](=O)[O-])ccc2N2CCOCC2)cc1,-43,9%,1,2,13,?,.,-2.3,i
Cc1ccc(NC(=O)N2CCC(O)(c3ccc(Cl)cc3)CC2)cc1,-2,-9%,.,.,.,.,0.69,-4.3,.
CC1=C(C(=O)OC(C)C)C(c2cccs2)NC(=O)N1 (stereo not drawn),21,?,2,5,1.3,1.0,.,1.1,i
Cc1cn2c(=O)c(C(=O)NCc3ccc4c(c3)OCO4)cnc2s1,0,.,19,12,1.2,-1.2,0.65,-0.7,i
CC(C)NC(=O)N(C)C[C@@H]1Oc2ccc(NC(=O)Cc3ccccc3)cc2C(=O)N([C@H](C)CO)C[C@@H]1C,.,.,3,1,-0.4,-1.9,.,.,i
O=C(CNS(=O)(=O)c1ccc(Cl)c(C(F)(F)F)c1)NC1CCCCC1,-3,-4%,-8,-13,1.9,-2.0,0.68,-2.3,i
C[C@H]1CN([C@@H](C)CO)C(=O)c2cccc(NC(=O)Nc3ccc(C(F)(F)F)cc3)c2O[C@H]1CN(C)C(=O)Nc1cccc2ccccc12,.,.,-2,0,-0.5,4.5,.,.,i
Cc1nnc(SCC(=O)Nc2ccc3c(c2)COC3=O)n1-c1ccccc1,-2,-2%,-2,-3,-1.1,2.7,0.76,1.4,i

# Compound activity from PubChem.
